Anthrax LT inh – inhibitors of anthrax lethal toxin internalization; actives 0.67% (n = 70,000); AID 912; Potency, µM (top dose mostly 40 µM), inactives show at the top dose activity change, negative = inhibition, usual class: inhibitors; Cells, anthrax lethal toxin internalization, FRET ratio (460/530); active = well fitted falling ratio curve with the 530 nm signal flat; inconclusive = other ratio curves, or a change in one channel alone; inactive = flat curves in the ratio and both channels; the % refers to the ratio; note: % is set by controls: 0 for no effect and ±100 for the full control effect; nearly all actives have a fitted effect of over 50% in size; tested in ME-180 cells; beta-lactamase reporter
Prx2 Sm inh – Schistosoma mansoni Prx2 inhibition | S. mansoni Prx2 activity coupled to TGR/GSH (TGR is thioredoxin glutathione reductase), NADPH fluorescence loss, qHTS; some inactives read as strong as hits | Potency, µM | actives 0.07% (n = 65,000); active means full or partial inhibition curve with a strong effect at the top dose; inconclusive means weaker partial or single-point curve; inactive means no accepted curve; note: series up to 57 µM; many of its hits are not listed in these tables
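Enzyme mix: 100 uM NADPH, 25 nM TGR, 700 uM GSH, 50 nM Prx2 in 100 mM phosphate pH 7.4, 10 mM EDTA, 0.01% Tween-20. 15 min RT with compound; NADPH/GSH added, H2O2 starts reaction; NADPH fluorescence read 8 min.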
* marks the source's active call; other numbers are inactive results; u = inconclusive; x = no result given; [ ] = remark or other dose. Potency is the fitted concentration of half-maximal effect.

SMILES | Anthrax LT inh | Prx2 Sm inh
COc1ccc(OC)c(NC2c3ccccc3C(=O)N2c2cccnc2)c1 (centres undefined) | u | >57
COc1cc(CN2CCC(C(=O)NC3CCCC3)CC2)ccc1O | 0% | >57
CNC[C@H](O)c1ccc(OC(=O)C(C)(C)C)c(OC(=O)C(C)(C)C)c1 | u | >57
COc1ccccc1CNC(=O)C1CCN(S(=O)(=O)N2CC(C)CC(C)C2)CC1 (centres undefined) | 19% | >57
O=C(NCC1CCCO1)C(C(=O)c1ccccc1)n1ccccc1=O (centres undefined) | -1% | >57
COc1ccc(OC)c(C(c2nnnn2CCc2ccccc2)N2CCC(C(N)=O)CC2)c1 (centres undefined) | 4% | >57
CCS(=O)(=O)N1CCCC(C(=O)NC2CCCCC2C)C1 (centres undefined) | 0% | >57
CN(C)c1ccc(-c2noc(C3CCN(S(=O)(=O)c4ccc(C(=O)O)cc4)CC3)n2)cc1 | 1% | >57
COC(=O)c1cc(=O)n2c(-c3ccccc3)csc2n1 | 3% | >57
CCCn1c(-c2ccc(F)cc2)nc2c(NCCN(C(C)C)C(C)C)nc(C)nc21 | -4% | x
Cc1ccc(S(=O)(=O)N(C)CCCC(=O)N2CCOCC2)cc1 | -8% | x
OC1CNCc2cc3c(cc21)OCCO3 (centres undefined) | -11% | >57
CC(C)=CCC/C(C)=C/CO/N=C1/C[C@@H](O)[C@@H](O)[C@@H]2[C@@H]3C(=O)N(Cc4ccccc4)C(=O)[C@H]3CC[C@H]12 | -12%[8 µM] | x
COc1ccc(CCNC(=O)c2cc(-c3ccccc3O)n[nH]2)cc1OC | -16% | >57
CCOC(=O)Cc1[nH]nc2c1C(c1cccc(OC)c1OC)C(C#N)=C(N)O2 (centres undefined) | -18% | >57
CCN(C(C)=O)c1nnc(CSc2nc3ccccc3s2)s1 | 13% | >57
Fc1ccc(C(c2nnnn2Cc2cccs2)N2CCN(C3CCCC3)CC2)cc1 (centres undefined) | -2% | >57
CN1CCN(C(=O)c2cc3sccc3n2CC(=O)c2ccccc2)CC1 | 1% | >57
CN(C(=O)C1CCN(S(=O)(=O)c2cccs2)CC1)C1CCCCC1 | 4% | >57
CC(C(=O)O)n1nc2ccccc2n1 (centres undefined) | 4% | >57
Cc1cccc(CNc2ncnc3ccc(-c4c(C)noc4C)cc23)c1 | -6% | >57
FC(F)(F)c1cccc(Cl)c1 | 6% | x
CCC(C)NC(=O)CS(=O)Cc1nc(-c2cccc(OC)c2)oc1C (centres undefined) | -5% | >57
CC(=O)c1c(C)[nH]c(C(=O)NCc2ccccc2Cl)c1C | -12% | >57
Cc1cc(C(=O)N2CCN(C(c3ccccc3)c3ccccc3)CC2)no1 | 0% | >57

Continued:
SMILES | Anthrax LT inh | Prx2 Sm inh
CC(=O)N(Cc1cc(=O)[nH]c2ccccc12)c1cccc(C)c1 | u | >57
O=C(Nc1nccs1)C1C2CC3OC(=O)C1C3C2 (centres undefined) | 11% | >57
Cc1c(NC(=O)Cn2nc(C(F)(F)F)c3c2CCCC3)c(=O)n(-c2ccccc2)n1C | 6% | >57
O=C(NC1CC1)c1cc2c(s1)-c1ccccc1OC2 | -18% | x
CN1CCN(CCCN)CC1 | -9%[8 µM] | >57
COc1cccc(C2=NOC(C(=O)NCCN3CCOCC3)C2)c1 (centres undefined) | 5% | >57
O=C(OCC(=O)c1ccco1)c1ccc2ncsc2c1 | -7% | >57
COc1ccc(Oc2ncc3nc(-c4ccc(Cl)cc4)c(=O)n(C)c3n2)cc1 | -27% | >57
Cc1cccc(-c2nnc(NC(=O)c3ccc(Cl)cc3)o2)c1 | 6% | >57
CCCCCn1c(SCC#N)nc2cc(C(=O)NCC3CCCO3)ccc2c1=O (centres undefined) | 9% | >57
O=c1oc2c(CN3CCOCC3)c(O)ccc2c2c1CCCC2 | u | x
COc1cc(CN(C(=O)c2ccco2)c2ccc(C)cc2)ccc1O | 1% | >57
CC(C)c1c(O)nc(SCCC(=O)O)[nH]c1=O | -14% | >57
O=C(Cc1cccs1)Nc1ccccn1 | u | >57
O=C(O)C1C2CCC(C2)C1C(=O)Nc1nc2ccccc2s1 (centres undefined) | 1% | >57
CCCCC(=O)N(C)C | 0% | x
COc1cc(CNC2CCC(C)C2)cc(OC)c1 (centres undefined) | u | >57
COCC(C)NCc1ccc(C)cc1C (centres undefined) | -6% | >57
COC(=O)C1C(=O)c2c([nH]c(C(=O)OCC3CCCO3)c2C)CC1C (centres undefined) | 4% | >57
COCCNC(=O)C(c1ccc(C)o1)N(C(=O)c1snc(C(N)=O)c1N)c1cc(C)cc(C)c1 (centres undefined) | -3% | >57
CCOC(=O)CC(=O)CSc1nc2ccccc2c(=O)n1-c1ccc(C(=O)N2CCOCC2)cc1 | u | >57
O=S(=O)(NCC1CCCO1)c1cccc(S(=O)(=O)N2CCCC2)c1 (centres undefined) | 4% | >57
C[C@@]12CC[C@H]3[C@@H](CC[C@H]4C[C@@H](O)CC[C@]43C)[C@H]1CC[C@@H]2C(=O)C[C@H](O)C(F)(F)F | 10%[8 µM] | >57
COC(=O)Cc1c(C)c2ccc(OCC(=O)NCc3ccc4c(c3)OCO4)cc2oc1=O | 0% | >57
COc1cccc(CNC(=O)C2CCN(S(=O)(=O)c3ccccc3)CC2)c1 | -19% | >57

As entered above.
Value of `COc1cccc(CNC(=O)C2CCN(S(=O)(=O)c3ccccc3)CC2)c1` in Prx2 Sm inh: >57
Value of `O=C(Nc1nccs1)C1C2CC3OC(=O)C1C3C2` (centres undefined) in Anthrax LT inh: 11%

Other structures
SMILES | Anthrax LT inh | Prx2 Sm inh
Cc1cc(C)n(-c2ccc(C(=O)OCC(=O)c3c(N)n(C)c(=O)n(C)c3=O)cc2)n1 | -24% | >57
Cc1csc(SCC(=O)Nc2ccc(S(=O)(=O)N3CCCC3)cc2)n1 | 6% | >57
COc1ccc2nc(N3CCCCC3)c(C#N)cc2c1 | 9% | >57
CCN(CC)c1ccc(C2CC(=O)Nc3cc(OC)c(OC)cc32)cc1 (centres undefined) | 21% | >57
Cc1c(/C(O)=C2\C(=O)C(=O)N(CCCN(C)C)C2c2ccncc2)cnn1-c1ccccc1 (centres undefined) | x | >57
C=CCn1sc(N)c(C(=O)OCC)c1=S | u | >57
O=C(N[C@@H](Cc1ccccc1)C(=O)CCl)OCc1ccccc1 | 16µM* | >57
CC(C)(C)C1=Nn2c(nnc2-c2ccccc2F)SC1 | x | >57
COc1cc(C2N(c3ccc(F)cc3)C(=O)C3CCCN32)cc(OC)c1OC (centres undefined) | 6% | >57
CCc1c(C)nc2ncnn2c1NCCc1ccc(OC)c(OC)c1 | -17% | >57
O=C(COC(=O)CCC1CCCC1)Nc1ccc(Cl)cn1 | 1% | >57
CCN1CCCC1CNC(=O)COc1cc(=O)n(C)c2ccccc12 (centres undefined) | u | >57
CN=C(Nc1cc(C)nn1-c1ccccc1)c1ccc(F)cc1 | 1% | >57
O=C(Cn1cc2c(n1)CCCCC2)NC1CCCCCC1 | -20% | >57
FC(F)(F)c1ccc(N2CCOCC2)c(NC2=NCCCCC2)c1 | 7% | >57
CCCc1nnc(NC(=O)CCC(=O)N2CCCCCC2)s1 | 1% | >57
COc1ccc(N2CCN(C(c3nnnn3CCc3ccccc3)C(C)C)CC2)cc1 (centres undefined) | -20% | >57
Cc1cccn2c(=O)c3cc(C(=O)NCC4CCCO4)n(C)c3nc12 (centres undefined) | 9% | >57
CC(C)CNc1nc(N)[nH]c(=O)c1NC=O | -4%[8 µM] | >57
C[C@@H]1/C=C\CC(=O)OC[C@H]2O[C@@H](C=C[C@@H]2O)[C@H](C)/C=C\CC(=O)OC1 | -4%[8 µM] | x
COc1cc(C)nc(N2CCC(C(N)=O)CC2)n1 | 9% | >57
CN(C)c1ccc(C(=O)OCC(=O)Nc2ccc(S(N)(=O)=O)cc2)cc1 | 9% | >57
CCC(CC)C(=O)Nc1nnc(-c2cccs2)s1 | 2% | >57
CCCn1c(-c2ccc(F)cc2)nc2c(NCCN(CC)CC)nc(C)nc21 | -12% | x
CN1CCN(C(=O)C(Cc2ccccc2)NS(=O)(=O)c2ccc3c(c2)CCC(=O)N3)CC1 (centres undefined) | 3% | >57

(more compounds)
SMILES | Anthrax LT inh | Prx2 Sm inh
CC(=O)c1ccc(OC(C)C)c(CN2CCCCC2)c1 | -7% | >57
CC(=O)Nc1cccc(NC(=O)c2c(-c3c(Cl)cccc3Cl)noc2C)c1 | -19% | x
COc1ccc(-c2cc(C(=O)N3CCN(C(c4ccccc4)c4ccccc4)CC3)no2)cc1OC | u | >57
O=S(=O)(c1ccc(Cl)cc1)N1CCN(C2CCCCCC2)CC1 | -12% | x
O=C(OC1CCOC1=O)c1ccc2ccccc2n1 (centres undefined) | -5% | >57
CCS(=O)(=O)N1CCC(NC(C)=O)(c2ccccc2)CC1 | -8% | >57
O=C(CSc1nnc(C23CC4CC(CC(C4)C2)C3)o1)Nc1ccc(N2CCOCC2)c(Cl)c1 | 2% | >57
COc1ccc(OC)c(C(c2nnnn2CCC(C)C)N2CCN(C(=O)c3ccco3)CC2)c1 (centres undefined) | u | >57
Cc1nonc1NC(=O)N1CCCC1 | -7% | >57
Cc1cccc(NC(=O)c2oc3ccc(S(=O)(=O)N4CCOCC4)cc3c2C)c1C | u | >57
COc1cccc(OC(=O)CSc2nnc(-c3ccccc3Br)o2)c1 | 13% | >57
O=C(O)COc1ccc2c(-c3ccccc3)cc(=O)oc2c1 | -10% | >57
Cc1cc(N2C(=O)C3C4c5ccccc5C(c5ccccc54)C3C2=O)no1 (centres undefined) | -12% | x
COc1ccccc1-c1cncnc1-n1ccnc1 | 3% | >57
COc1ccc2oc(C(=O)C3CC3)c(N)c2c1 | -20% | >57
N#Cc1nc(-c2ccco2)oc1N1CCOCC1 | u | >57
CCOC(=O)CC1=CC(=O)Nc2ccccc2N1 | -10% | >57
CC(C)COC(=O)n1ccc(C(=O)N2CCCCC2)n1 | 13% | >57
CC(=O)c1ccc2c3c(ccc(O)c13)CC2 | -18% | >57
CN(c1ccccc1)c1nc(N2CCCC2)nc(-n2ccnc2)n1 | u | >57
c1ccc(CNC2=NCCC2)nc1 | 4% | >57
Cn1c(Cn2c(=O)sc3ccccc32)nnc1SCC(=O)NC1CCCCC1 | -4% | >57
Cn1nnc2cc(C(=O)N3CCN(c4ccccc4)CC3)ccc21 | 10% | >57
CCOc1cc2[nH]c(=S)n(CC3CCCO3)c(=O)c2cc1OCC (centres undefined) | 7% | >57
CNS(=O)(=O)c1cccc(C(=O)OCC(=O)c2cc(C)n(-c3ccc4c(c3)OCO4)c2C)c1 | u | >57

3 compounds picked at random from those above:
SMILES | Anthrax LT inh | Prx2 Sm inh
CC(=O)N(Cc1cc(=O)[nH]c2ccccc12)c1cccc(C)c1 | u | >57
Cc1cccn2c(=O)c3cc(C(=O)NCC4CCCO4)n(C)c3nc12 (centres undefined) | 9% | >57
COc1cc(C)nc(N2CCC(C(N)=O)CC2)n1 | 9% | >57

Among those listed so far, two contain a tert-butyl group.
SMILES | Anthrax LT inh | Prx2 Sm inh
CNC[C@H](O)c1ccc(OC(=O)C(C)(C)C)c(OC(=O)C(C)(C)C)c1 | u | >57
CC(C)(C)C1=Nn2c(nnc2-c2ccccc2F)SC1 | x | >57

(list continues)
SMILES | Anthrax LT inh | Prx2 Sm inh
CNCCc1c(C)n[nH]c1C | 1% | >57
C=CCn1c(=O)[nH]c2cc(C(=O)N3CCN(c4cccc(Cl)c4)CC3)ccc2c1=O | u | >57
CC(Oc1ccc(Cl)cc1Cl)c1nc(-c2ccc(NC(=O)c3cccnc3)cc2)no1 (centres undefined) | -7% | >57
O=C(NCc1cccnc1)C(C(=O)c1ccc(F)cc1)n1ccccc1=O (centres undefined) | 2% | >57
CN1CCCC(C(=O)C(C#N)c2ccccc2)C1 (centres undefined) | -6% | >57
Cc1ccc2[nH]c(=O)c(CN(CCO)Cc3nnnn3CCc3ccccc3)cc2c1 | -3% | >57
CC(=O)c1ccc(NC2CC(O)C(O)CO2)cc1 (centres undefined) | 10% | >57
CC(=O)Nc1ccc(S(=O)(=O)N2CCN(c3ccc(C)c(Cl)c3)CC2)cc1 | -5% | >57
CN(CCO)c1ncnc2nc[nH]c12 | u | >57
COCCn1c(=O)cnc2cnc(N3CCOCC3)nc21 | -8% | >57
COc1ccc(N2CC(C(=O)NC3CC(C)(C)NC(C)(C)C3)CC2=O)cc1 (centres undefined) | 4% | >57
CCOc1ccc(C(=O)Nc2cc(OC)ccc2OC)cc1 | -21% | >57
CC(C)CCn1c(N)c(C(=O)OCC2CCCO2)c2nc3ccccc3nc21 (centres undefined) | x | >57
CC(C(=O)N1c2ccccc2Sc2ccccc21)n1nnc(-c2cccs2)n1 (centres undefined) | -11% | >57
CCOC(=O)c1nnn(-c2nonc2N)c1CN1CCCCCC1 | -9% | >57
O=C(Nc1ccc(O)c(C(=O)O)c1)c1ccc2c(c1)C(=O)N(CC1CCCO1)C2=O (centres undefined) | 4% | >57

A portion of the library; rates above refer to the full screens.
